# BJeLR viability: kills HRASV12-expressing BJeLR cells; BJeLR (HRASV12) viability, CellTiter-Glo ATP luminescence, 48 h; reference of the scale not given here; inhibition, % (concentration not given with the values); 0.17% of 300,000 active; AID 1554;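 active = replicate mean above 50%; inconclusive = above 50% but judged a plate artefact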;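 note: 50 nL library stock added to about 25 µL; numbers are from one replicate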
# RN4220 kill: S. aureus RN4220 growth inhibition; OD600, 16 h; inhibition, % (test concentration not listed); 0.33% of 330,000 active;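 active = z-score of -3 or lower and OD600 up to 0.18 on both plates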;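 note: plate controls were untreated cells for no effect and reference antibiotic for full effect; stock transfer was 100 nL into about 80 µL; one replicate is shown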
# Sa ugtP lethal: growth inhibition of S. aureus ugtP deletion strain. growth inhibition, % (no concentration beside the values). S. aureus RN4220 ugtP deletion, OD600 growth, 16 h; some inactives read as strong as hits. 0.54% of 330,000 active;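 active = z-score under -3 and OD600 up to 0.15 on both plates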;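 note: plate controls were untreated wells for no effect and antibiotic for full effect; wells of about 80 µL received 100 nL stock; the first replicate is given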
# PrP 5UTR inh: inhibition of PrP 5' UTR reporter expression; cell-based PrP 5' UTR mRNA reporter, plate reader; inhibition, % (no concentration beside the values); 0.35% of 340,000 active; AID 488862;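 active = every replicate at 50% or more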;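 note: 0 = median of the neutral control wells; tested in H4 reporter cells; numbers are from one replicate; inactives centre near -14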
# Bead autofluor: compound fluorescence in toxin protease inhibitor counterscreen | compound autofluorescence counterscreen, microsphere flow cytometry; active compounds read high | AID 624483 | fluorescence intensity (no concentration beside the values) | 3.1% of 360,000 active;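 active = at least 3 SD above the mean of all compounds, about 16000 in these data; inconclusive = too few beads counted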;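 note: 100 nL of 1 mM stock went into each well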
# Mtb hypoxia inh: reduces hypoxia-regulated biosensor signal in M. tuberculosis | M. tuberculosis hypoxia-regulated fluorescent reporter, fluorescence | fluorescence inhibition, % (concentration not given with the values) | 0.1% of 300,000 active;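 active = 35 to 45% if threefold the growth effect, above 45% if 1.5-fold the growth effect; inactive = the rest, general growth blockers included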;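 note: wells of about 50 µL received 100 nL stock; 0% = vehicle wells and 100% = reference inhibitor wells; whole bacteria with a GFP reporter of the hypoxia response; strong numbers were not always called active; many hits fall short of the cut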
# Mtb hypoxia inh growth: recorded beside Mtb hypoxia inh, whose call it bears; growth inhibition, %; measured here: M. tuberculosis growth (absorbance);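 0% = vehicle and 100% = reference antibiotic; read after six days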
# Starred values were filed as active, the others as inactive; u = inconclusive; x = no result given.
SMILES,BJeLR viability,RN4220 kill,Sa ugtP lethal,PrP 5UTR inh,Bead autofluor,Mtb hypoxia inh,Mtb hypoxia inh growth
Cc1cccc(N2CC(C(=O)OCC(=O)c3ccc(OC(=O)c4cccs4)cc3)CC2=O)c1C (stereo not drawn),-1,2.7,6,-12,x,5,-4
COc1ccc(S(=O)(=O)N(C)C[C@H]2Oc3c(NC(=O)C4CC4)cccc3C(=O)N([C@H](C)CO)C[C@@H]2C)cc1,x,-6.6,2,-29,4227,4,2
O=S(=O)(/C=C/c1ccccc1)N1CCN(Cc2ccc3c(c2)OCO3)CC1,5,-0.5,7,-22,4380,9,5
CCc1ccc(C2=NN(CCC(=O)NCc3cccs3)C(=O)CC2)cc1,14,-2.1,3,-8,4508,-1,-6
CCOC(=O)c1cc(C#N)c(N2CCN(C(=O)c3cccc(C(F)(F)F)c3)CC2)nc1C(F)(F)F,-5,4.2,-14,-16,4167,4,11
CC1=CC(=NOS(=O)(=O)c2ccccc2)C(C(C)C)=CC1=O,x,5.7,6,x,x,10,6
CCOC(=O)C1CCCN(C(=O)CN2C(=O)NC(C)(c3ccc4ccccc4c3)C2=O)C1 (stereo not drawn),3,-4.0,-2,-21,5770,-12,-2
COc1ccc(CCN(C)CC(=O)Nc2c(C)cc(C)cc2C)cc1OC,2,-1.9,5,0,3175,-9,-12
CCOc1ccccc1/C=C(/NC(=O)c1ccccc1)C(=O)N1CCCCC1,3,4.8,13,-4,u,2,-7
Cc1nc(N2CCN(c3ccccn3)CC2)c2c(C)c(C(=O)Nc3ccc(F)c(Cl)c3)sc2n1,-13,2.9,-5,-9,4324,3,0
Cc1ccc2nnnc(-c3ccccc3)c2c1,-1,3.5,9,-13,9929,3,-5
COc1ccccc1NC(=O)C(=O)N/N=C(\C)CC(=O)Nc1ccc(OCc2ccccc2)cc1,6,x,x,-24,5280,x,x
O=C(Nc1ccc(Cl)cc1)c1ccc2nsnc2c1,0,7.3,-3,-108,4349,4,-6
O=C(NCCCN1CCCC1=O)C1CCN(S(=O)(=O)c2cccc(C(F)(F)F)c2)CC1,-5,0.5,0,-17,5251,5,-8
CCC(C)C(=O)Nc1nc2c(s1)C(=O)CC(C)(C)C2 (stereo not drawn),3,1.4,5,-8,5759,2,-2
O=C(Nc1cc(Cl)ccc1N1CCOCC1)c1ccc(=O)[nH]c1,x,6.6,16,-8,2919,8,8
COC(=O)c1ccc(-c2csc(NC(=O)c3c(C)noc3C)n2)cc1,x,6.0,3,-23,4711,2,1
COc1ccc(OC(C)C(=O)N2CC(C)OC(C)C2)cc1 (stereo not drawn),-4,2.4,-1,-11,7875,14,6
CC(C)(C)CN1CCNC(=O)C1CC(=O)N1CCC(C(=O)N2CCOCC2)CC1 (stereo not drawn),0,6.7,8,-25,4757,8,3
Cc1cc(Cl)n2c(nc3cc(F)c(F)cc32)c1C#N,128*,42,83,2,3850,x,x
CCOc1cc(C(=O)Nc2nnc(C)s2)cc(OCC)c1OCC,-5,3.2,1,-39,5616,1,4
COc1ccc(-c2cc(C(=O)Nc3cc(C)nn3-c3ccccc3)no2)cc1,-8,1.3,8,-22,3319,4,3
O=[N+]([O-])c1ccc(C[n+]2cccc(O)c2)cc1,3,4.9,-7,-7,3886,3,5
CCCc1cc(=O)oc2cc(OCC(=O)N3CCC(C(N)=O)CC3)ccc12,-3,2.5,10,-10,5732,x,x
CCN1C(=O)[C@H]2[C@@H](c3ccc(C)cc3)N3C(=O)N(c4ccc(OC)cc4)C(=O)[C@@]3(CC)[C@H]2C1=O,-3,x,x,5,3937,x,x
COCCn1cnc2c(c1=O)c1nc3ccccc3nc1n2/N=C/c1ccco1,2,x,x,-2,4473,x,x
C=CCn1c(-c2cnn(-c3ccccc3)c2N)n[nH]c1=S,10,4.2,3,-89,u,12,12
C=CCn1c(O)c2ccc(C(=O)N=NC(=O)COc3ccccc3F)cc2c1O,-5,-0.2,-3,-1,6740,-5,3
COc1cc(C(=O)NCCCNc2nc3c(C)cc(C)cc3cc2C#N)cc(OC)c1OC,1,7.7,2,-22,4301,-6,-18
COc1ccc(NS(=O)(=O)c2cc(NC(=O)C3CCCO3)ccc2N2CCCCC2)cc1 (stereo not drawn),-4,5.3,-3,-20,4516,1,0
O=C1c2ccccc2C(=O)N1CC(O)COc1ccc(Cl)cc1 (stereo not drawn),3,1.9,4,-52,3571,5,1
O=C(CCNc1cccc(C(F)(F)F)c1)c1ccco1,-1,4.2,-4,-5,10556,5,2
COc1ccc(-n2nnnc2-c2cnc(N3CCCC3)nc2C(F)(F)F)cc1,-12,-1.8,5,-16,8631,-4,6
O=C(COc1cc2oc(=O)c3c(c2cc1Cl)CCC3)NCCCn1ccnc1,4,0.7,0,-9,5327,12,-1
CC(C)c1ccc(NC(=O)[C@H](Cc2c[nH]c3ccccc23)NC(=O)[C@@H]2Cc3ccccc3CN2)cc1,35,11,1,43,4187,x,x
CCCN1CCC(=O)N([C@H](COc2ccccc2)c2ccccc2)CC1,-1,x,x,-3,3852,x,x
O=C(O)C1=C[C@@H](c2csc3ccccc23)C[C@@H](OCc2ccc(CO)cc2)O1,5,x,x,-9,3920,x,x
Cc1[nH]n(C2=NCCS2)c(=O)c1N=Nc1ccccc1,0,5.4,6,-32,2633,5,6
CCc1cc2cc(C(=O)Nc3ccccc3F)sc2s1,17,1.4,0,-66,9578,4,3
Cc1cc(C(=O)NCc2cc(C)n(C)n2)sc1-c1ccccc1,11,-4.6,27,1,18215*,15,8
Fc1cc(Cl)ccc1NC1=NCCCCC1,2,1.5,17,-26,3478,-10,-11
CCOc1ccc(NCc2nnc(SCc3ccc(Cl)cc3)n2-c2ccccc2)cc1,-2,-0.2,-13,-21,1946,-1,7
COc1ccc(CCNc2oc(-c3ccccc3OC)nc2C#N)cc1OC,-5,5.4,-12,-12,3265,5,8
COc1ccc(CCNC(=O)CN(Cc2ccc(Cl)cc2)S(C)(=O)=O)cc1,-8,4.9,7,-30,4000,12,2
Cc1c2ccncc2cc2c1[nH]c1ccccc12,x,14,22,-10,6323,10,6
COc1ccccc1NC(=O)Nc1nc(CC(=O)Nc2ccc(N(C)C)cc2)cs1,-4,-2.1,-1,-77,u,x,x
NC(=O)CC(NC(=O)Cc1ccc(Cl)cc1)c1ccc(NCCOc2ccccc2)c([N+](=O)[O-])c1 (stereo not drawn),-10,1.0,-11,0,3987,10,8
COC(=O)CC1C(=O)NCCN1C(=O)c1ccc([N+](=O)[O-])cc1 (stereo not drawn),1,0.2,-2,-16,3995,12,0

# Part of the list above, with values under each structure:
# Second line of a record – BJeLR viability, RN4220 kill, Sa ugtP lethal, PrP 5UTR inh, Bead autofluor, Mtb hypoxia inh, Mtb hypoxia inh growth
COc1ccc(-n2nnnc2-c2cnc(N3CCCC3)nc2C(F)(F)F)cc1
  -12, -1.8, 5, -16, 8631, -4, 6
O=C(COc1cc2oc(=O)c3c(c2cc1Cl)CCC3)NCCCn1ccnc1
  4, 0.7, 0, -9, 5327, 12, -1
CC(C)c1ccc(NC(=O)[C@H](Cc2c[nH]c3ccccc23)NC(=O)[C@@H]2Cc3ccccc3CN2)cc1
  35, 11, 1, 43, 4187, x, x
CCCN1CCC(=O)N([C@H](COc2ccccc2)c2ccccc2)CC1
  -1, x, x, -3, 3852, x, x
O=C(O)C1=C[C@@H](c2csc3ccccc23)C[C@@H](OCc2ccc(CO)cc2)O1
  5, x, x, -9, 3920, x, x
Cc1[nH]n(C2=NCCS2)c(=O)c1N=Nc1ccccc1
  0, 5.4, 6, -32, 2633, 5, 6
CCc1cc2cc(C(=O)Nc3ccccc3F)sc2s1
  17, 1.4, 0, -66, 9578, 4, 3
Cc1cc(C(=O)NCc2cc(C)n(C)n2)sc1-c1ccccc1
  11, -4.6, 27, 1, 18215*, 15, 8
Fc1cc(Cl)ccc1NC1=NCCCCC1
  2, 1.5, 17, -26, 3478, -10, -11
CCOc1ccc(NCc2nnc(SCc3ccc(Cl)cc3)n2-c2ccccc2)cc1
  -2, -0.2, -13, -21, 1946, -1, 7
COc1ccc(CCNc2oc(-c3ccccc3OC)nc2C#N)cc1OC
  -5, 5.4, -12, -12, 3265, 5, 8
COc1ccc(CCNC(=O)CN(Cc2ccc(Cl)cc2)S(C)(=O)=O)cc1
  -8, 4.9, 7, -30, 4000, 12, 2
Cc1c2ccncc2cc2c1[nH]c1ccccc12
  x, 14, 22, -10, 6323, 10, 6
COc1ccccc1NC(=O)Nc1nc(CC(=O)Nc2ccc(N(C)C)cc2)cs1
  -4, -2.1, -1, -77, u, x, x
NC(=O)CC(NC(=O)Cc1ccc(Cl)cc1)c1ccc(NCCOc2ccccc2)c([N+](=O)[O-])c1 (stereo not drawn)
  -10, 1.0, -11, 0, 3987, 10, 8
COC(=O)CC1C(=O)NCCN1C(=O)c1ccc([N+](=O)[O-])cc1 (stereo not drawn)
  1, 0.2, -2, -16, 3995, 12, 0

# (more compounds)
SMILES,BJeLR viability,RN4220 kill,Sa ugtP lethal,PrP 5UTR inh,Bead autofluor,Mtb hypoxia inh,Mtb hypoxia inh growth
Cc1ccc(C(=O)Nc2ccc(CN3CCCCC3)cc2)c(C)c1,6,2.6,2,-11,5685,10,14
O=C(CCC(=O)c1ccc(Br)cc1)Nc1ccc(F)cc1,-2,3.0,-1,-15,3554,-1,-6
Cn1c(Cn2c(=O)sc3ccccc32)nnc1SCC(=O)N1CCN(c2ccccc2)CC1,-2,1.8,-15,-25,5690,x,x
Cc1cc(/C=C2/NC(=O)N(Cc3ccccc3F)C2=O)c(C)n1C,-2,x,x,8,2715,x,x
CCCCCCCCCCCCN1C(=O)CSC1c1cccnc1 (stereo not drawn),-7,-2.9,6,-2,3746,18,10
COc1ccc2oc(C(=O)Nc3nc(C)cs3)c(C)c2c1,x,0.2,-19,-65,3071,-3,-4
COc1ccc(CCn2c(=N)c(C(=O)NCc3ccco3)cc3c(=O)n4cccc(C)c4nc32)cc1,2,-22,-21,-12,3771,6,-2
C[C@H](NS(=O)(=O)c1ccc(Cl)cc1)C(=O)OCC(=O)NCCc1ccc(S(N)(=O)=O)cc1,x,-0.1,1,-29,3650,10,6
Cc1ccc(NC(=O)CSCC(=O)NNC(=O)c2ccoc2C)cc1,-9,3.2,4,-25,5320,7,5
COc1c(N)c2c(c([N+](=O)[O-])c1OC)C(=O)OC2,x,0.5,0,-11,3964,9,10
COC(=O)CSc1ncnc2c(C)csc12,-5,5.8,8,-11,x,9,4
CCN(CC)CCNC(=O)c1cc(Sc2nnc(C)s2)nc2ccccc12,13,1.3,5,-21,2503,17,5
O=C(NC1CC1)C1=CC(c2ccccc2)CC(OCCCCO)O1 (stereo not drawn),x,3.3,-1,x,x,4,-2
CC(C)(C)c1ccc(CS(=O)(=O)CC2(O)CCN(C(=O)c3cccc(C(F)(F)F)c3)CC2)cc1,1,7.5,9,-28,4390,14,1
C=C1C2CCC3[C@]4(C)CC(OC5OC(CO)C(OS(=O)(=O)O)C(OS(=O)(=O)O)C5OC(=O)CC(C)C)CC(C(=O)O)C4CC[C@]3(C2)C1O (stereo partly drawn),x,7.2,-2,x,x,4,1
O=C(COC(=O)CCC1CCCCC1)Nc1ccc(OC(F)F)cc1,1,-0.8,6,-14,2497,x,x
Cc1cccc(OCCOC(=O)c2c(-c3ccccc3)noc2C)c1,14,1.8,2,-10,3558,x,x
CCCOc1ccc(N2C(=O)CC(NCC(=O)OCC)C2=O)cc1 (stereo not drawn),-3,2.1,13,x,u,10,-5
COc1ccc(N2C(=O)CCC(C(=O)c3ccccc3)=C2C)cc1,8,3.2,5,-7,19774*,1,10
CN(C)CCNC(=O)c1ccc(-c2nn(C)c(=O)c3ccccc23)cc1,2,3.3,12,-22,4337,15,4

# Compound activity: PubChem, several laboratories
